# CBX7 AlphaScr: CBX7 chromodomain binding inhibitors, primary screen, biochemical, AlphaScreen | Chromobox protein homolog 7 (Homo sapiens), O95931 | AlphaScreen His6-CBX7 / biotin-H3K27me3 peptide binding; stronger effect = lower value | normalised signal (fraction of DMSO) (no concentration beside the values) | hit rate 1.1% among 66,000; in the data active = normalised signal below about 0.5;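 note: 100 nL library stock added to about 20 µL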
# Target sequence (O95931 whole entry, looked up): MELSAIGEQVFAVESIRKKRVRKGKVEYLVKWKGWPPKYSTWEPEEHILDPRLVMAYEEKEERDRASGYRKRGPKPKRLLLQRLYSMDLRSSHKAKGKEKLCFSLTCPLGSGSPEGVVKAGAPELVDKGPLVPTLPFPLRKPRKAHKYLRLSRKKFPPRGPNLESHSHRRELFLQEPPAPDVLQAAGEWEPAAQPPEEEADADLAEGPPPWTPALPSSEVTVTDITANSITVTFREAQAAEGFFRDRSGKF
# CBX7 AlphaScr z-score: also measured in CBX7 AlphaScr; calls as there; z-score; measured here: z-score of CBX7 signal; some inactives read as strong as hits; reference of the scale not given here;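 same signal on another scale; lower means less binding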
# * marks the source's active call; other numbers are inactive results.
SMILES,CBX7 AlphaScr,CBX7 AlphaScr z-score
COc1ccc(OC)c(-c2cc(C(=O)Nc3cc(C)n(Cc4ccc(Cl)cc4)n3)no2)c1,1.1,0.42
O=C(Nc1nc(-c2ccc3ccccc3c2)cs1)c1ccc(Cl)cc1Cl,0.98,-0.022
COc1ccc(O)c(-c2cn[nH]c2-c2cccs2)c1,0.83,-3.5
COc1ccccc1C(=O)Nc1c(C(=O)c2ccc(Cl)cc2)oc2ccccc12,1.2,0.98
COCC(C)NC(=O)c1cc(-c2ccccc2OC)on1 (configuration not stated),1,0.79
O=C(NC1CCCc2ccccc21)c1ccc(NC2=NC3CS(=O)(=O)CC3S2)cc1 (configuration not stated),0.95,-0.98
COc1cccc(-c2cc(C(=O)N3CCN(C(c4ccccc4)c4ccccc4)CC3)no2)c1,0.84,-1.9
Cn1nc(-c2ccc(N3CCOCC3)c(NC(=O)c3ccccc3Cl)c2)c2ccccc2c1=O,0.98,-0.46
Cc1ccn2c(Nc3ccc4c(c3)OCO4)c(-c3ccccn3)nc2c1,0.034*,-26*
COc1ccc(-c2csc(NC(=O)c3ccccc3NS(=O)(=O)c3ccc(C)cc3)n2)cc1,0.58,-8.9
O=C(Nc1cccc(F)c1)c1cnc2ccccn2c1=O,0.85,-2.2
COc1cccc(CNC(=O)c2cc3c(-c4ccccc4F)nn(C)c3s2)c1,0.98,-0.027

# (further entries)
SMILES,CBX7 AlphaScr,CBX7 AlphaScr z-score
COc1ccc(CCNC(=O)Cn2nc(-c3ccccc3)ccc2=O)cc1OC,1,0.94
Cc1c(NC(=O)c2ncn[nH]2)cccc1-c1nc2ccccc2o1,0.77,-6.6
Cc1noc(C)c1S(=O)(=O)N1CCCC(C(=O)NCCN2CCN(Cc3ccccc3)CC2)C1 (configuration not stated),1.1,0.6
C=C(C)Cn1c(C2CC(=O)N(c3ccc(C)c(Cl)c3)C2)nc2ccccc21 (configuration not stated),0.97,-0.14
O=C(NCc1ccc(F)cc1)c1cc(-c2ccncc2)nc2ccccc12,0.95,-0.056
Cc1c(C(=O)Nc2ccc3c(c2)OCO3)sc2nc(-c3ccc(F)cc3)cn12,0.93,-1.3
Cc1cc(OCC(=O)N(Cc2ccc(C(C)C)cc2)C2CCS(=O)(=O)C2)ccc1Cl (configuration not stated),1.1,1.2
CC1(C)CC(=O)N(CC(=O)NCc2cccs2)c2ccccc2S1,0.98,-0.37
O=C1CCCc2c1[nH]c1cc3c(cc21)OCCO3,1,0.42
CCOc1cccc(C(=O)Nc2cc(-c3nc4cc(C)cc(C)c4o3)ccc2C)c1,1.1,2.6
Cc1ccc2c(c1)C(c1ccccc1)N(C(=O)CC1CCCCC1)CC(=O)N2 (configuration not stated),0.92,-2
Cc1ccc(C)n1-c1ccc(CC(=O)O)cc1,0.69,-4.9

# Next section:
SMILES,CBX7 AlphaScr,CBX7 AlphaScr z-score
COc1ccc(-c2nc(Nc3nc(C)cc(C)n3)n[nH]2)cc1OC,0.84,-3.2
Cc1oc(-c2ccc(Cl)cc2)nc1CN1CCCC(C(=O)NC(C)c2ccccc2)C1 (configuration not stated),1,-0.029
Fc1ccc(-c2cn3cc(Cl)ccc3n2)cc1,0.94,-0.62
Cc1c(C(=O)NCCC(C)C)oc2ccc(S(=O)(=O)N3CCCCCC3)cc12,1,0.47
COc1ccc(NC(=O)c2c(-c3ccccc3)noc2C)cc1,1,0.7
CCOC(CNC(=O)CSCc1nc(-c2ccc(OC)c(OC)c2)oc1C)OCC,1,0.17
COc1cc2c(C(=O)N(C)c3ccc(C(C)C)cc3)cn(C)c(=O)c2cc1OC,1,1.4
C=CCN1C(=O)C(C)(C)N(C(C)=O)c2ccccc21,1,0.21
CC(=O)Nc1ncc(Cc2ccc(Cl)cc2)s1,0.83,-2
O=C(O)c1cc(-n2c(/C=C\c3ccc(F)cc3)nc3ccccc3c2=O)ccc1Cl,0.92,-0.075
COc1ccc(-n2ccnc2SCC(=O)Nc2cc(C)on2)cc1,0.95,-0.067
O=C(NC1CCCCCC1)C1CCN(S(=O)(=O)c2cnc[nH]2)CC1,1,1

# Next section.
SMILES,CBX7 AlphaScr,CBX7 AlphaScr z-score
CC(=O)N(C)c1ccc(NC(=O)c2cnn(C)c2)cc1,0.99,-0.12
Cc1ccc(Cc2c(C)nc3c(C(=O)N4CCN(c5cc(Cl)ccc5C)CC4)cnn3c2C)cc1,0.84,-4.4
Cc1ccc2c(N)c(C#N)sc2n1,0.82,-2.8
CC1CCCCN1c1nc(-c2ccccc2)nc2ccccc12 (configuration not stated),1.3,3.3
CCN1CCN(c2ncc(C(=O)NCCC3=CCCCC3)c3ccccc23)CC1,1.5,1
CC(CNC(=O)C1CCN(C(=O)c2cc3sccc3n2C)CC1)c1ccccc1 (configuration not stated),0.98,-0.32
CCCCc1ccc(NC(=O)CSc2nccn2-c2cccc(Cl)c2)cc1,0.84,-2.9
C=C(C)c1cccc(C(C)(C)NC(=O)N2CCN(c3ccc(OC)cc3)CC2)c1,1.2,2.1
COc1cccc(C2C(N3C(=O)c4ccccc4C3=O)C(=O)N2c2ccccc2OC)c1 (configuration not stated),0.96,-0.9
CCc1cccc(NC(=O)CC2Oc3ccccc3NC2=O)c1 (configuration not stated),1.3,1.7
COc1ccc(CCNC(=O)Cc2c(C(=O)O)[nH]c3ccc(Cl)cc23)cc1OC,1.3,3
CCCCn1c(COc2ccc(Cl)cc2)nc2ccccc21,0.89,-1.1

# Next part:
SMILES,CBX7 AlphaScr,CBX7 AlphaScr z-score
O=C(NC1CCCCC1)c1n[nH]c(=O)c2ccccc12,1.2,1
O=C(CN1CC(c2ccccc2)CC1=O)Nc1cccc2ccccc12 (configuration not stated),1.1,2.1
COC(CNc1cc(C)nc2c(-c3ccc(Cl)cc3)c(C)nn12)OC,1.2,1.3
COc1ccc(CCNC(=O)c2ccc(NC3=NC4CS(=O)(=O)CC4S3)cc2)cc1OC (configuration not stated),1.2,1.8
O=C(Nc1ccc(Cl)cn1)C(Sc1ccccc1)c1ccccc1 (configuration not stated),1.3,7.1
O=C(Nc1ccc(-c2noc(-c3ccc(F)cc3)n2)cc1)c1cccnc1,1,0.34
Cc1c(C(=O)Nc2ccc(F)c(F)c2)oc2ccc(S(=O)(=O)N(C)C3CCCCC3)cc12,1.1,3
COc1cc2c(C(=O)Nc3ccc(F)cc3F)cn(C)c(=O)c2cc1OC,1,0.052
O=C(CN1C(=O)CSc2ccc(S(=O)(=O)N3CCOCC3)cc21)NCCN1CCCC1,1,0.032
Cc1cc(C)cc(NC(=O)CN(C)S(=O)(=O)c2cnc[nH]2)c1,1.2,1.8
CCN1CCN(c2cc(C)c3cc(NC(=O)c4ccccc4C)ccc3n2)CC1,1,0.3
COc1ccc(C2CC(=O)N(CC(=O)Nc3ccc(OC)cc3OC)c3ccccc3S2)cc1 (configuration not stated),0.68,-5.4

# (cont.)
SMILES,CBX7 AlphaScr,CBX7 AlphaScr z-score
CN(C)C(=O)N1CCCC(C(=O)NCc2ccc(F)cc2)C1 (configuration not stated),1,1.1
Cc1nc2c(-c3ccc(F)cc3)c(C)nn2c(C)c1CCC(=O)NCc1cccc(Cl)c1,1,0.92
O=C1Nc2ccccc2OC1CC(=O)N1CCC(Cc2ccccc2)CC1 (configuration not stated),0.89,-0.65
CCOc1ccc(CCNC(=O)Cn2nnc(-c3ccc(OC)cc3)n2)cc1OCC,1.1,1.1
CCCCN(C)S(=O)(=O)c1ccc(C(=O)Nc2nnc(-c3ccc(OC)cc3OC)o2)cc1,0.97,-1.1
COc1ccc(NC(=O)c2n[nH]c(=O)c3ccccc23)cc1Cl,1.1,0.79
O=C(Nc1ccc2oc(-c3ccc(I)cc3)nc2c1)c1cc2ccccc2o1,1.1,1.1
COc1ccc(CCNC(=O)c2ccc3c(c2)ncn3-c2ccc(C(C)C)cc2)cc1OC,0.87,-3.1
COc1cccc(-c2nc(CS(=O)(=O)CC(=O)NCc3ccc4c(c3)OCO4)c(C)o2)c1,1,0.65
Cc1ccc(N2CC(c3nc4ccccc4n3C(C)C)CC2=O)cc1C (configuration not stated),0.87,-2.9
COCCNC(=O)c1cnn2c1NC(c1ccc(OC)c(OC)c1)CC2C(F)(F)F (configuration not stated),1.1,1.7
CCN1C(=O)CC(c2ccc(OC)c(OC)c2)Sc2ccccc21 (configuration not stated),0.89,-1.6

# In a second layout: 5 of the compounds above
# Below each compound – CBX7 AlphaScr	CBX7 AlphaScr z-score
- Cc1nc2c(-c3ccc(F)cc3)c(C)nn2c(C)c1CCC(=O)NCc1cccc(Cl)c1
 : 1	0.92
- COc1cccc(-c2nc(CS(=O)(=O)CC(=O)NCc3ccc4c(c3)OCO4)c(C)o2)c1
 : 1	0.65
- CCOc1ccc(CCNC(=O)Cn2nnc(-c3ccc(OC)cc3)n2)cc1OCC
 : 1.1	1.1
- O=C1Nc2ccccc2OC1CC(=O)N1CCC(Cc2ccccc2)CC1 (configuration not stated)
 : 0.89	-0.65
- COc1ccc(NC(=O)c2n[nH]c(=O)c3ccccc23)cc1Cl
 : 1.1	0.79

# (list continues)
SMILES,CBX7 AlphaScr,CBX7 AlphaScr z-score
Cc1cccc(N2CCN(C(=O)c3cc4c(s3)-c3ccccc3OC4)CC2)c1C,1.1,3.2
O=C(NCCN1CCCCCC1)c1csc2c1CCCC2,1,1.5
CCCC1=Nc2cc(C(=O)N3CCN(Cc4ccc5c(c4)OCO5)CC3)ccc2Sc2ccccc21,0.71,-15
Cn1nc(-c2ccc(C(=O)Nc3cccc(C(F)(F)F)c3)cc2)c2ccccc2c1=O,1,0.32
Cc1c(C(=O)N2CCC(C)CC2)sc2ncn(CC(=O)Nc3cccc(C(F)(F)F)c3)c(=O)c12,1.3,2.6
COc1ccccc1NC(=O)COc1cc(=O)n(C)c2ccccc12,0.89,-1.8
Cc1nnc(NC(=O)c2sc3ncn(CC(=O)Nc4ccc(C)c(Cl)c4)c(=O)c3c2C)s1,0.78,-3.2
O=S1(=O)N=C(Nc2ccc(F)cc2)c2ccccc21,0.9,-1.1
COc1ccc(-c2csc(Nc3ccc(O)cc3)n2)cc1OC,0.77,-3.7
CN(C)CCCN1C(=O)CCn2c(-c3ccccc3)c(-c3ccccc3)c3cccc1c32,0.49*,-7.9*
CCN(CC)S(=O)(=O)c1ccc2c(c1)N(CC(=O)Nc1ccc(C)cc1Cl)C(=O)CS2,0.99,-0.52
O=C(c1ccc2nc(N3CCOCC3)sc2c1)N1CCC(N2CCCCC2)CC1,1.1,0.13

# (listing goes on)
SMILES,CBX7 AlphaScr,CBX7 AlphaScr z-score
Cc1c(C(=O)O)oc2ccc(S(=O)(=O)N3CCCCCC3)cc12,1.1,1.5
O=C(Nc1cccc(Br)c1)c1ccn(C(=O)Nc2ccc(Cl)cc2)n1,1,0.028
Cc1ccc(-c2nc(Nc3ccc(Cl)cc3)sc2CC(=O)O)cc1,0.94,-1.4
CCN(CC)S(=O)(=O)c1ccc(-c2csc(N3N=C(c4ccccc4)CC3c3ccccc3)n2)cc1 (configuration not stated),1.2,4.6
Cc1ccc2nc(-c3ccc(N4C(=O)CC(N5CCCCCC5)C4=O)cc3)sc2c1 (configuration not stated),1.2,2.4
Cc1ccc(Nc2c(-c3ccccc3)nc3cc(C)ccn23)cc1,1.2,2.1
Cc1oc(-c2ccccc2Cl)nc1CSCC(=O)N1CCCC1,0.93,-1.2
O=C(Nc1nnc(Cc2ccccc2)s1)c1cccs1,0.99,-0.029
Cc1cccc(-c2nc(CSCC(=O)NCc3ccc4c(c3)OCO4)c(C)o2)c1,0.85,-2.8
CC(NC(=O)c1ccccc1F)C(c1cccs1)N1CCN(c2ccccc2)CC1 (configuration not stated),0.79,-2.2
Cc1c(NC(=O)c2ccc3c(c2)OCCO3)cccc1-c1nc2ncccc2o1,0.96,-0.054
Cc1cc(NC(=O)CSc2nnc(Cc3cc(=O)[nH]c(=O)[nH]3)n2-c2ccccc2)no1,0.84,-5.7

# Random excerpt: four compounds from above
SMILES,CBX7 AlphaScr,CBX7 AlphaScr z-score
COc1cccc(-c2nc(CS(=O)(=O)CC(=O)NCc3ccc4c(c3)OCO4)c(C)o2)c1,1,0.65
CC(=O)N(C)c1ccc(NC(=O)c2cnn(C)c2)cc1,0.99,-0.12
COc1cccc(CNC(=O)c2cc3c(-c4ccccc4F)nn(C)c3s2)c1,0.98,-0.027
COc1ccc(-c2nc(Nc3nc(C)cc(C)n3)n[nH]2)cc1OC,0.84,-3.2

# The listing continues.
SMILES,CBX7 AlphaScr,CBX7 AlphaScr z-score
CCc1cc2c(NC(CCSC)C(=O)O)ncnc2s1 (configuration not stated),0.97,-0.75
O=c1c2c(nc3c(-c4ccccc4)c[nH]n13)CCCC2,0.88,-2.2
COC(=O)C(C)Sc1nnc(Cc2cc(=O)[nH]c(=O)[nH]2)n1-c1ccccc1 (configuration not stated),1,1.4
Cc1ccc(C(=O)N2CC(=O)Nc3ccc(Cl)cc3C2c2ccccc2)cc1C (configuration not stated),0.96,-1.1
O=C(CC(C(=O)N1CCc2ccccc21)n1ccnc1)N1CCCCCC1 (configuration not stated),0.95,-1.2
COc1ccc(OC)c(NC(=O)C2CCCN(S(=O)(=O)c3cnc[nH]3)C2)c1 (configuration not stated),1,0.078
CCc1ccc(CNC(=O)c2ccc3c(c2)N(CC)C(=O)c2ccccc2S3)cc1,0.87,-2.6
Cc1csc(NC(=O)c2ccccc2Cl)n1,1,0.0084
Cc1cc(OCc2nc(-c3ccccn3)no2)ccc1Br,1.1,0.074
COc1ccc(-n2nnc3c(=O)n(CC(=O)NCc4ccccc4)cnc32)cc1,0.91,-1.8
CCN1CCCC1CNC(=O)CN1C(=O)COc2ccc(S(=O)(=O)N3CCC(C)CC3)cc21 (configuration not stated),1,0.49
O=C1CCc2cc(S(=O)(=O)N3CCC(N4CCCCC4)CC3)ccc2N1,0.91,-2.1

# Screening data deposited in PubChem by several laboratories.

# These rows are one share of the data; count on the stated rates, not on these rows.
